Beta2AR agonist: agonists of human beta-2 adrenergic receptor inducing internalization; P07550; Am2.2-beta2AR cells, FAP receptor internalization, flow cytometry; reference of the scale not given here; response, % (test concentration not listed); hit rate 0.43% among 340,000; AID 504454;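 active = response above a set limit, near 3 SD of response in nonfluorescent compounds, cut at about 42% in these data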;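 also: stock transfer was 100 nL into about 11 µL; a reference agonist was the positive control; negative values mostly stem from fluorescent compounds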
HNF4A DNA FP: change in binding of human HNF4 alpha to DNA; hit rate 0.3% among 360,000; HNF4a-FITC DNA binding, fluorescence polarization, 1 h; activity change, % at 10 µM; P41235; in the data active = activity change above about 30%, passing the limit was not always enough;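 also: controls were the assay level and a saturating level of protein; the project sought stronger binding though the title names inhibitors; some compounds called inactive have numbers as strong as hits; positive values seem to mean higher polarization but the record does not say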
Target sequence (P41235 whole entry, looked up): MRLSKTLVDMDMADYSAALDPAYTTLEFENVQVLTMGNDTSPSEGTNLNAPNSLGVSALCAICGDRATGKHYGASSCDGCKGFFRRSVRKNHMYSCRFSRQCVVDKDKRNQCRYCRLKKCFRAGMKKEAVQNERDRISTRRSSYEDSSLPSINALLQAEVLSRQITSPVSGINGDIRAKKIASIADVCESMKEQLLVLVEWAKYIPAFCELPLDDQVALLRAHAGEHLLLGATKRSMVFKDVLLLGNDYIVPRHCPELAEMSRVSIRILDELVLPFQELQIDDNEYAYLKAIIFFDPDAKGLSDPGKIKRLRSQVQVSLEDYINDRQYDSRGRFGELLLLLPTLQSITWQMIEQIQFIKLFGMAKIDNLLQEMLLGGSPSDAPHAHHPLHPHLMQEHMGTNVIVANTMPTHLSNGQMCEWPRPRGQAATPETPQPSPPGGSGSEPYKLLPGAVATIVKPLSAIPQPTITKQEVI
UCH37 DUB inh: inhibitors of human deubiquitinating enzyme UCH37; Q9Y5K5; inhibition, % (concentration not given with the values); purified proteasome/UCH37, Ub-AMC cleavage fluorescence; hit rate 0.33% among 330,000;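 active = mean of two replicates above 20%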;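 also: 0% = compound-free wells with enzyme and 100% = wells lacking proteasome; stock transfer was 100 nL into about 20 µL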
Target sequence (Q9Y5K5 whole entry, looked up): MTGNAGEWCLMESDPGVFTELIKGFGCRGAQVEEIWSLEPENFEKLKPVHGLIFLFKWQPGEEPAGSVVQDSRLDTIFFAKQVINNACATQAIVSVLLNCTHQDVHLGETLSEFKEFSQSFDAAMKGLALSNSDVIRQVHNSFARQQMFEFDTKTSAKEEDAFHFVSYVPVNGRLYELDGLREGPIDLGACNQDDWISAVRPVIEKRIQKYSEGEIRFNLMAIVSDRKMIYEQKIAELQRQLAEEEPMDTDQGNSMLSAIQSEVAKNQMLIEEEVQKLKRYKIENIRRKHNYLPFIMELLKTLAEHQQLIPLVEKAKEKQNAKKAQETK
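Reagent: Ub-AMC substrate; assay system: Proteasome-associated human UCH37 deubiquitinase; controls: no-proteasome and no-compound wells; read-out: % inhibition of Ub-AMC cleavage fluorescence; timing: 30 min preincubation with enzyme, 25 min cleavage at room temperature; signal: AMC fluorescence from Ub-AMC cleavage, excitation 355 nm, emission 460 nm; buffer or medium: Tris-HCl pH 7.4 plus ovalbumin, ATP-MgCl2, DTT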
ALR inh: blocks human ALR sulfhydryl oxidase activity. hit rate 3.8% among 290,000. inhibition, % (no concentration beside the values). purified ALR, DTT oxidation, H2O2 HRP-luminol luminescence. P55789;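 active = mean and each replicate at 75% or more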;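 also: stock transfer was 7.5 nL into about 7.5 µL; 0% = neutral wells and 100% = wells with inactivated enzyme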
Target sequence (P55789 whole entry, looked up): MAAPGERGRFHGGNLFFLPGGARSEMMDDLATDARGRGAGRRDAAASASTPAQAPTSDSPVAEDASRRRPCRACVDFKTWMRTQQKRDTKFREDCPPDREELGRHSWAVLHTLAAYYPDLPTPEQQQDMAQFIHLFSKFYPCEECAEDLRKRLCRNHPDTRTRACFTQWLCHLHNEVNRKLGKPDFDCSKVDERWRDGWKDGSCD
E coli growth: blocks Escherichia coli growth; hit rate 0.21% among 330,000; OD600 absorbance (no concentration beside the values); OD600, 23 h; stronger effect = lower value; AID 1053175;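 active = OD600 absorbance below the run mean of sample wells minus 3.6 SD, in any replicate, cut at about 0.56 in these data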;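 also: stock transfer was 300 nL into about 60 µL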
FGF22 binding: binders of recombinant human FGF22 by thermal shift; Q9HCT0; hit rate 1.5% among 340,000; SYPRO orange fluorescence; percent of sucrose octasulfate shift, DMSO zero; calls only at 9.99 µM;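 active = melting point raised past a set limit in the mean and every replicate; three in four hits are not shown here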
rRNA inh HTS: selective bacterial rRNA inhibition in E. coli; E. coli WT GFP vs humanized-ribosome RFP mutants, fluorescence, 24 h; stronger effect = lower value; DMSO median 0, no signal -100; hit rate 1.6% among 350,000; GFP signal change (wild-type ribosome), % (no concentration beside the values); AID 720706;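 active = significant combined selectivity score with lowered wild-type GFP, culture density cut under 30%, mutant RFP and density less affected; inactive = any of these conditions unmet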; also: one replicate is shown; some compounds called inactive have numbers as strong as hits
rRNA inh HTS OD600: recorded beside rRNA inh HTS, whose call it bears; OD600 change, %; measured here: OD600 growth;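 optical density of the mix in the first replicate; 0 = DMSO median and -100 = no signal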
rRNA inh HTS RFP: further read-out of rRNA inh HTS, marked with its call; RFP signal change, %; measured here: RFP humanized mutant strains;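 first replicate; 0 = DMSO median and -100 = no signal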
* hit, by the source's call; i = inactive; . = not tested or not shown; & = joins results of further samples. The list is partial; the hit share may differ from the screen's.

SMILES	Beta2AR agonist	HNF4A DNA FP	UCH37 DUB inh	ALR inh	E coli growth	FGF22 binding	rRNA inh HTS	rRNA inh HTS OD600	rRNA inh HTS RFP
O=S1(=O)CCOC[C@H](Cc2ccccc2)N1Cc1cccc(F)c1	3	0.8	-0.9	15	.	i	-28	-36	-22
O=C(O)c1ccccc1SC1CC(=O)N(c2cccc3ccccc23)C1=O (stereo not drawn)	1	2.5	1.7	.	0.62	i	1	-19	10
Cc1nc(NC(C)c2ccccc2)c2oc3ccccc3c2n1 (stereo not drawn)	0	-0.2	2.3	-1	0.67	.	.	.	.
O=c1[nH]c2ccc(NC(=S)Nc3ccccc3)cc2[nH]1	3	0.0	1.6	90*	0.66	i	24	23	3.4
CSCC[C@H](NC(=O)c1cccc(S(=O)(=O)N2CCCCC2)c1)c1nc2ccccc2[nH]1	-6	-0.3	3.1	1	0.65	i	-4	-28	1.6
Cc1cc(C)cc(C(=O)NCC(=O)OCC(=O)N2CCN(S(=O)(=O)c3ccc4ccccc4c3)CC2)c1	0	1.5	2.4	-4	0.71	i	.	.	.
Cc1cc(CNC(=O)Cn2nc(C)c([N+](=O)[O-])c2C)c2ccccc2n1	6	0.0	3.3	-22	0.69	i	13	8	0.9
CCN1C(=O)c2ccccc2Sc2ccc(C(=O)NCCCN(CC(C)C)CC(C)C)cc21	27	-3.5	3.0	-2	0.66	.	10	-7	11
COc1ccccc1N1CCN(C(=O)Cn2cnc3c2c(=O)n(C)c(=O)n3C)CC1	3	2.8	2.4	-2	0.7	i	8	2	1.2
COc1ccc(C2=Nn3c(nnc3-c3ccccc3OC)SC2)cc1OC1CCOC1 (stereo not drawn)	-4	1.1	3.9	0	0.68	i	-14	-1	-1.2
CC(=O)NC(Cc1ccccc1C)C(=O)NC1CCN(C(=O)c2cccc(C)c2)CC1 (stereo not drawn)	-2	-0.3	-4.9	5	0.65	i	7	2	-3.6
COc1ccc(CC(=O)N2N=C(C)CC2(O)c2cccnc2)cc1 (stereo not drawn)	0	-0.9	3.9	-5	0.71	.	.	.	.
CCOc1ccccc1N1CCN(S(=O)(=O)CC)CC1	4	1.0	-0.7	23	0.73	.	.	.	.
CCCc1cc(C(=O)Nc2sc3c(c2C(=O)OCC)CCCC3)no1	-1	-1.1	-179	-3	0.72	i	0	8	-3.9
CC(C)(C)OC(=O)CNC(=O)c1[nH]cnc1C(=O)Nc1ccc(CNC(=O)OC(C)(C)C)cc1	23	-3.2	-1.2	-2	0.67	i	1	6	3.2
CC[n+]1c(/C=C2/C=C(C)CC(C)C2)sc2ccccc21 (stereo not drawn)	1	0.7	2.8	-12	.	i	3	-3	-1.5
Cc1nn(CC(=O)Nc2c(F)cc(F)cc2Br)c(=O)c2cccn12	-1	-0.3	1.5	-6	0.68	i	5	14	-2.1
O=C(NC1CCCC1)C(c1ccc(Cl)cc1)N1CCOCC1 (stereo not drawn)	6	-2.4	7.9	1	0.74	i	-1	-1	0.5
O=C(Nc1ccccc1)O/N=C(\c1ccccc1)c1ccccn1	-8	3.9	.	-2	.	.	.	.	.
NC(=O)CN1C(=O)C(=O)N(Cc2cccc(Cl)c2)C1=O	12	-3.4	-0.1	0	0.65	i	2	5	-1.6
NC(=S)Nc1ccc2cn[nH]c2c1	-3	-2.6	0.7	.	0.68	i	11	4	-1.0
O=C(NCc1csc(-c2cccs2)n1)Nc1ccc(C(F)(F)F)cc1	2	0.8	-1.7	0	0.72	i	-8	-5	-3.0
CC(=O)c1cc(F)c(N2CCCC2)cc1C	-4	1.7	6.7	-6	0.68	.	.	.	.
CCOc1cc(CNc2ccc(S(N)(=O)=O)cc2)cc(Cl)c1OC	6	-1.9	-2.2	.	0.71	.	.	.	.
CCc1ccccc1NC(=O)c1cccc(Oc2ccc([N+](=O)[O-])cc2Cl)c1	3	-2.1	2.1	-2	0.75	i	-11	-15	-9.0
CCN(CC)c1ccc(NC(=O)COC(=O)c2cccs2)cc1	0	-3.2	-1.1	98*	0.72	.	.	.	.
N#Cc1c(NC(=O)CN2CCN(S(=O)(=O)c3ccc4c(c3)OCCO4)CC2)sc2c1CCC2	-3	3.9	-3.3	-1	0.69	.	.	.	.
Nc1ccc(N2CCN(c3ccccc3)CC2)c(F)c1	-14	-3.5	-1.5	79*	0.65	.	-6	-2	-5.7
C=CCSC1=C(C#N)C(c2ccccc2)CC(=O)N1 (stereo not drawn)	8	-1.8	-2.8	1	0.71	.	.	.	.
O=C(C1CCCCN1S(=O)(=O)c1ccccc1)N1CCCCC1 (stereo not drawn)	9	-5.2	2.8	.	0.66	.	.	.	.
COC(=O)CSc1nc2ccc(NC(=O)c3ccccc3C(=O)N3CCOCC3)cc2s1	17	-3.1	1.5	-13	0.69	.	.	.	.
CCOC(=O)C1CCN(C(=O)CSc2nc(N)cc(=O)[nH]2)CC1	11	-1.8	6.5	7	0.64	i	7	7	-2.0
Cc1ccc(C(=O)Nc2cc3[nH]c(=O)oc3cc2C)cc1	-5	-0.7	0.0	3	0.68	i	6	4	0.4
O=C(COC(=O)CNC(=O)c1cccc([N+](=O)[O-])c1)NCc1ccco1	-1	2.5	-0.6	-7	0.69	i	7	13	-0.3
O=C(O)c1cccc(NC(=S)NC(=O)C(c2ccccc2)c2ccccc2)c1	11	-2.0	6.7	6	0.71	.	.	.	.
COc1ccc(NC(=O)COC(=O)Cc2ccc(Br)cc2)cc1	1	-1.4	1.9	-1	0.68	i	-4	2	2.4
CCC(OCC(O)CN1CCCCC1)c1ccccc1 (stereo not drawn)	-5	-0.7	3.7	-3	0.7	i	20	15	3.1
COc1ccc2nc(NC(=O)c3cccc(N4C(=O)CCC4=O)c3)sc2c1	2	-2.5	-3.7	.	0.7	i	3	8	-2.1
CCC(C(=O)OC(C)C(=O)Nc1ccc(Cl)cn1)c1ccccc1 (stereo not drawn)	6	-0.2	1.2	-19	0.68	i	-44	-74	-10
COc1ccc(-c2oc3cc(O)c(OC)c(O)c3c(=O)c2OC)cc1O	22	7.6	.	.	.	i	-30	-38	-7.3
O=C(/C=C/c1ccco1)NCc1ccc(F)cc1	0	-1.1	-1.1	0	0.73	i	-5	8	8.8
O=C(O)CCCC(=O)Nc1ccc(Sc2ccc([N+](=O)[O-])cc2)cc1	-6	3.1	2.5	8	0.73	.	.	.	.
CCOc1cc(NC(=O)C(C)C)c(OCC)cc1NC(=O)Nc1ccccc1	-4	-1.4	5.5	.	0.64	i	6	6	7.1
O=C(NC1CCCC1)C1CCCN(S(=O)(=O)c2cccc3cccnc23)C1 (stereo not drawn)	0	0.0	3.4	-9	0.73	i	2	5	1.9
CCCCCCCc1nc2c(=O)n(C)c3ccccc3c2o1	-20	7.6	-0.7	-4	0.74	.	.	.	.
CN(Cc1ccccc1)C(=O)COC(=O)c1cc2ccccc2oc1=O	-2	-2.3	-26	4	0.71	i	-2	-2	2.9
COc1ccccc1C(=O)N(CCC1CCCN1C)c1nc2ccccc2s1 (stereo not drawn)	0	0.2	6.5	-5	0.71	i	-15	-11	4.1
Nc1nnc(CCS(=O)(=O)c2cc(Cl)ccc2Cl)s1	-5	1.7	-1.6	-11	0.69	.	.	.	.
O=C(COC(=O)c1cc(F)cc(F)c1)NCCCc1ccccc1	0	1.9	0.6	-1	0.67	i	2	3	0.0
Cc1cccc(S(=O)(=O)Nc2ccc(-c3cn4ccccc4n3)cc2)c1	79*	2.2	-33	-10	0.69	i	-32*	-7.1*	-9.3*

Continued:
SMILES	Beta2AR agonist	HNF4A DNA FP	UCH37 DUB inh	ALR inh	E coli growth	FGF22 binding	rRNA inh HTS	rRNA inh HTS OD600	rRNA inh HTS RFP
CNC(=O)COc1ccc(C=O)cc1OC	-8	-1.0	0.8	.	0.68	.	.	.	.
CC(=C/c1ccco1)/C=N/NC(=O)c1ccncc1	-1	1.2	.	-9	.	i	7	10	-0.1
CC(C)OCCCNC(=O)C1CC(=O)N(CCc2ccccc2)C1 (stereo not drawn)	-3	1.6	3.6	-12	0.67	i	2	17	2.0
Cc1ccccc1OCC(=O)N=Nc1c(O)n(C)c2ccccc12	-9	-0.7	3.6	-4	0.74	.	-2	-5	-7.1
CCN(CC(=O)Nc1c(F)cccc1F)C(=O)CCc1nc2cc(S(=O)(=O)N(C)C)ccc2n1CC	-5	-2.9	0.9	33	0.7	i	3	10	0.5
CCc1ccc(N2CCN(C(=O)c3ccc4c(c3)OCO4)CC2)cc1	3	5.1	3.2	24	0.71	i	-9	-30	-2.4
CC(Nc1ncnc2ccccc12)c1ccccc1 (stereo not drawn)	0	-2.8	.	-5	.	i	-30*	-4.0*	-8.4*
COc1ccc(C(=O)COC(=O)c2cnc(C)cn2)c(OC)c1	-1	2.1	4.4	2	0.68	i	-4	-3	-1.3
CCn1c(C)nc2cc(C(=O)NNC(=O)c3ccc(C)cc3)ccc21	1	1.1	3.5	.	0.67	i	0	2	1.3
COC(=O)c1cn(CC(=O)N2CCCCC2C)c2ccccc12 (stereo not drawn)	15	-2.8	0.8	-9	0.69	.	.	.	.

An excerpt of these results, in CSV form:
Compound,Beta2AR agonist,HNF4A DNA FP,UCH37 DUB inh,ALR inh,E coli growth,FGF22 binding,rRNA inh HTS,rRNA inh HTS OD600,rRNA inh HTS RFP
Cc1ccccc1OCC(=O)N=Nc1c(O)n(C)c2ccccc12,-9,-0.7,3.6,-4,0.74,.,-2,-5,-7.1
CNC(=O)COc1ccc(C=O)cc1OC,-8,-1.0,0.8,.,0.68,.,.,.,.
CC(C)OCCCNC(=O)C1CC(=O)N(CCc2ccccc2)C1 (stereo not drawn),-3,1.6,3.6,-12,0.67,i,2,17,2.0

The list goes on.
SMILES	Beta2AR agonist	HNF4A DNA FP	UCH37 DUB inh	ALR inh	E coli growth	FGF22 binding	rRNA inh HTS	rRNA inh HTS OD600	rRNA inh HTS RFP
CC1(C)C2CCC1(C)C(NCC(O)COc1ccc(C#N)cc1)C2 (stereo not drawn)	7	-0.2	2.9	.	0.69	i	4	0	-1.0
CCc1ccc(C(O)(CC(C)C)C(CN2CCOCC2)c2ccccc2)cc1 (stereo not drawn)	10	3.4	2.2	-13	0.68	i	7	12	0.0
Cc1noc(C)c1S(=O)(=O)NC1CCCc2ccccc21 (stereo not drawn)	-2	1.0	0.7	-10	0.71	.	.	.	.
COc1cccc(Cn2cnc(-c3ccccc3OC)c2-c2ccco2)c1	.	8.0	.	.	.	i	1	-1	24
Cc1ccccc1C1c2[nH]c3ccccc3c2CCN1CCCn1cccn1 (stereo not drawn)	12	-1.1	-39	-11	0.65	i	-8	-5	-5.5
COc1cccc(CNc2nc(-c3cccnc3)nc3ccccc23)c1	-1	4.5	-1.3	15	0.69	i	-46	-38	-9.9
O=C1C2C(c3ccccc3)C=CC(c3ccccc3)C2C(=O)N1CCO (stereo not drawn)	8	1.7	1.6	-1	0.62	.	.	.	.
CCCCC(=O)N(CCOC)c1nnc(-c2cccnc2)s1	-34	-2.5	-0.8	1	0.64	i	.	.	.
C[C@H](CO)N1C[C@H](C)[C@H](CN(C)S(=O)(=O)c2ccc3c(c2)OCCCO3)OCc2cnnn2CCCC1=O	.	-2.2	.	.	.	i	-6&-2	-1&-1	-3.2&0.0
CCC(c1nnnn1CCc1ccccc1)N(Cc1ccco1)Cc1cc2c(C)ccc(C)c2[nH]c1=O (stereo not drawn)	5	-0.7	1.9	-11	0.73	.	.	.	.
CCCn1c(-c2ccc(C(=O)OC)cc2)nc2c1c(=O)[nH]c(=O)n2Cc1ccccc1	8	2.6	-262	0	0.69	i	7	6	-0.2
Cc1cccc(C(=O)NCCCN2CCCC2=O)c1	2	-0.6	-0.6	-1	0.71	.	.	.	.

Bioassay records (PubChem)
